Screens (PubChem BioAssay)
Cruzain Triton – inhibitors of Trypanosoma cruzi cruzain with detergent; hit rate 0.43% among 200,000; purified cruzain, Z-FR-AMC fluorescence, 0.01% Triton; Potency, µM, inactives show max response, negative = inhibition, hits mostly inhibitors; active = well fitted curve in the direction sought with a large enough effect; inconclusive = small, poorly fitted or top-dose-only effect, or another doubt; inactive = no such curve, though single readings can be large; an effect the other way counts as inactive or inconclusive;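 also: plate controls were neutral wells for no effect and buffer without enzyme for full effect; nearly all actives have a fitted effect of over 40% in size; top concentration of the series not given in the record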
Target sequence (P25779 123-467 limits assumed): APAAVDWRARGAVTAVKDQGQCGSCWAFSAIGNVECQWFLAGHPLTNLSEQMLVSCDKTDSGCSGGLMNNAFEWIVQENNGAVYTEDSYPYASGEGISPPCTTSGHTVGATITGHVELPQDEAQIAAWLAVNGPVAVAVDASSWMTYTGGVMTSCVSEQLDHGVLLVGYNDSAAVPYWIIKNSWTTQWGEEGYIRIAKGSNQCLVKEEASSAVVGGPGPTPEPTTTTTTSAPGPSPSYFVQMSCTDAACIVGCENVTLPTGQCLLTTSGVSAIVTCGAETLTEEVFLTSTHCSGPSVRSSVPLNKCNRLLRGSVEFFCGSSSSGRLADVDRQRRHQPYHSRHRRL
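Compounds were screened in titration against cruzain (1.5 nM) with 0.01% Triton X-100 to counter colloidal aggregation. Activity was the AMC fluorescence increase over 60 s after adding 2 uM Z-FR-AMC at pH 5.5.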
LASV entry inh – inhibitors of Lassa virus binding or cell entry | Lassa virus pseudotype entry inhibition, cell reporter; control for the full effect not named in the record | Potency, µM (doses to about 37.9 µM), inactives show at the top dose activity change, negative = inhibition, usual class: inhibitors | hit rate 1.2% among 300,000; active means well fitted inhibition curve with a large enough effect; inconclusive means small, poorly fitted or top-dose-only effect, or effect the other way; inactive means flat fitted curve, though single readings scatter; tested in HEK293 cells; also: % is scaled to controls: 0 for no effect and ±100 for the full control effect; nearly all actives have a fitted effect of over 50% in size; luciferase read-out
SARS PLpro yeast – SARS-CoV PLP inhibition in yeast; hit rate 0.19% among 330,000; Potency, µM (top dose mostly 32.9 µM), for the others: top-dose activity, positive = growth rescue; AID 485353; S. cerevisiae expressing SARS-CoV PLpro, growth rescue; control for the full effect not named in the record; also: 0% is about no effect; nearly all actives have a fitted effect of over 55% in size; growth read by luminescence after 48 h
Marburg entry inh – blocks Marburg virus binding to or entry into cells. AID 540276. Marburg virus pseudotyped entry inhibition, cell reporter; control for the full effect not named in the record; about a third of the inactives were read at about 46 µM. Potency, µM (titrated, usually from 37.8 µM), inactives show at the highest dose activity change, negative = inhibition, usual class: inhibitors. hit rate 1.8% among 300,000; active = well fitted inhibition curve with a large enough effect; inconclusive = small, poorly fitted or top-dose-only effect, or effect the other way; inactive = flat fitted curve, though single readings scatter; tested in HEK293 cells; about a fifth of its hits are not listed in these tables; also: % is scaled to controls: 0 for no effect and ±100 for the full control effect; luciferase read-out
2A StopGo – lowers the luciferase signal of an FMDV 2A StopGo reporter; hit rate 1.2% among 410,000; Potency, µM (top dose mostly 57.9 µM), inactives show top-dose signal change, negative = less light; human cells with a luciferase reporter of 2A StopGo recoding; control for the full effect not named in the record; active = well fitted falling curve with a large enough effect; inconclusive = small, poorly fitted or top-dose-only effect; inactive = no such curve, though single readings can be large or run the other way; tested in HEK293T cells; also: % is scaled to controls: 0 for no effect and ±100 for the full control effect; nearly all actives have a fitted effect of over 45% in size; luciferase light after 4 h
NS1 function inh – blocks influenza NS1 protein function. S. cerevisiae slowed by influenza A NS1, growth recovery by OD600. Potency, µM (top dose mostly 46.1 µM), without a hit: top-dose activity, positive = more growth. hit rate 0.4% among 270,000. AID 2326; also: actives are rising curves; nearly all actives have a fitted effect of over 50% in size
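Read-out: OD600 growth recovery of NS1-expressing budding yeast. Cells grown overnight at 30C in -URA glucose medium, washed, resuspended and diluted 1:100 in 2% galactose assay medium, pH 6.0. Same strain lacking NS1 served as positive control.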
Cruzain inh noDet – inhibitors of Trypanosoma cruzi cruzain without detergent; purified cruzain, Z-FR-AMC fluorescence, no detergent; hit rate 2.3% among 200,000; Potency, µM, inactives show max response, negative = inhibition, hits mostly inhibitors; active = well fitted curve in the direction sought with a large enough effect; inconclusive = small, poorly fitted or top-dose-only effect, or another doubt; inactive = no such curve, though single readings can be large; an effect the other way counts as inactive or inconclusive;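 also: plate controls were enzyme without inhibitor for no effect and buffer without enzyme for full effect; nearly all actives have a fitted effect of over 40% in size; top concentration of the series not given in the record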
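Detergent-free condition (0.00005% Triton X-100) in acetate buffer pH 5.5 with DTT. 1.5 nM enzyme and compound were pre-mixed 15 min, then 2 uM Z-FR-AMC substrate added; reaction progress from fluorescence change between first and third reads (60 s).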
RE007 growth inh – less growth of the S. pombe RE007 Vpr strain | S. pombe RE007 Vpr strain, BacTiter-Glo ATP luminescence, 24 h; control for the full effect not named in the record | Potency, µM (highest dose often 92.2 µM), for inactives: top-dose activity change, negative = less growth | hit rate 0.21% among 360,000 | AID 651644; active = well fitted falling curve with a large enough effect; inconclusive = small, poorly fitted or top-dose-only effect; inactive = no such curve, though single readings can be large or run the other way;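 also: % is scaled to controls: 0 for no effect and ±100 for the full control effect; nearly all actives have a fitted effect of over 50% in size; the assay follows cell death caused by Vpr and the record does not say whether a fall means rescue or toxicity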
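Fission yeast RE007 carrying one integrated HIV-1 vpr copy, seeded at OD 0.01 in PMG+AL medium with 23 nL pinned compound. Grown 24 h at 30 degrees; viability read by BacTiter-Glo luminescence after 5 min.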
Active calls of the source: *; ? = inconclusive; . = no result given; & = joins results of further samples; [ ] = another dose, or the depositor's remark. Unless noted, calls follow the shape of the dose curve; as a rule, active means well fitted rising curve with a large enough effect; inconclusive means small, poorly fitted or top-dose-only effect; inactive means no such curve, though single readings can be large or run the other way. Potency is read from the fitted curve at half-maximal effect.

SMILES	Cruzain Triton	LASV entry inh	SARS PLpro yeast	Marburg entry inh	2A StopGo	NS1 function inh	Cruzain inh noDet	RE007 growth inh
O=C(CSc1nnc2ccccn12)Nc1ccc2c(c1)OCCO2	.	4%	-5%	2%[46.1 µM]	51%[activator]	.	.	-14%
COc1ccc(CNC(=O)C2CCN(S(=O)(=O)c3ccc(SC)cc3)CC2)cc1	.	-17%	7%	-28%[46.1 µM]	-9%	-4%	.	-6%
Cc1ccc(NC(=O)CCC(=O)N/N=C/C=C/c2ccccc2)cc1	1.0%	11%	5%	?	2%	7%	?	?
Cc1cccc(Cn2cc(C(=O)Nc3cc(F)ccc3F)ccc2=O)c1	-4.2%	-9%[46.1 µM]	.	.	-2%	.	-1%	.
COc1cc(O)c2c(=O)c3c(OC)c(O)ccc3oc2c1	-9.0%	12%	?	19%	65%[activator]	2%	2%	?
CCOc1ccccc1-n1c(SCC(=O)N(CC)CC)nnc1-c1ccccn1	-3.2%	-13%	-6%	-1%[46.1 µM]	-9%	8%	7%	11%
Cc1c(CCO)c(=O)[nH]n1S(=O)(=O)c1ccccc1	.	-7%	3%	14%[46.1 µM]	-6%	0%	.	-10%
COc1ccc(C(=O)N/C(=C\c2ccc3c(c2)OCO3)C(=O)Nc2ccc(C(=O)O)cc2)cc1	.	16%	0%	4%[46.1 µM]	-1%	.	.	7%
CCC(Cc1ccccc1)NC(=O)CCc1ccccc1 (stereo not drawn)	.	12%	-6%	4%	-11%	-10%	.	6%
CCOc1cc2c(cc1O)CCC1C2CCC2(C)C(O)CCC12 (stereo not drawn)	.	?	.	-5%	-27%	.	.	33%
CCOc1cc(N2CCOCC2)c(OCC)cc1NC(=O)CN1CCCC1	-0.4%	12%	-22%	13%	-13%	-4%	-3%	23%
CCC1(CCCC(=O)c2ccc(F)cc2)C(=O)NC(=S)NC1=O	-2.7%	16%	-7%	-3%	-24%	8%	-1%	.
Cc1ccc(Oc2ccc(NC(=O)c3ccco3)cc2)cc1	-4.9%	?	-28%	?	16%	-219%	3%	?
CC(C)C[C@H](NC(=O)c1nc[nH]c1C(=O)N[C@@H](CC(C)C)C(=O)OCc1ccccc1)C(=O)OCc1ccccc1	.	.	-4%	.	-15%	-3%	.	-7%
CCCc1nnc(NC(=O)CCC(=O)NC2CC2)s1	.	.	-11%	.	-5%	-4%	.	19%
CCC1(CC)NC(=O)N(CC(=O)OCC(=O)c2ccccc2OC)C1=O	.	-5%	-1%	11%[46.1 µM]	4%	.	.	11%
Cc1ccc(SCc2cc(=O)[nH]c(N3CCN(Cc4ccccc4)CC3)n2)cc1	-4.5%	-11%	4%	-17%	-25%	-18%	18%	-10%
COc1cccc(Nc2nc(-c3sc(NC(=O)CC(C)C)nc3C)cs2)c1	-9.3%	.	-1%	.	-24%	2%	-3%	11%
Cc1nnc(N2CCC(C(=O)NC(C)C)CC2)c2nn(-c3ccc(Cl)cc3)c(C)c12	-0.2%	-5%[46.1 µM]	.	.	-10%	.	-15%	.
N#C/C(=C\c1ccc(-c2ccc([N+](=O)[O-])cc2)o1)C(=O)Nc1nc(-c2cccs2)cs1	.	.	-2%	.	0%	3%	.	6%
CCc1ccc(C2CC(c3ccccc3Cl)Nc3nc(N)nn32)cc1 (stereo not drawn)	-4.6%	.	-9%	.	?	-12%	11%	15%
COC(=O)[C@@H]1CC[C@H](C)[C@@H](c2ccc(C)cc2)N1C(=O)c1ccc(/C=N/O[C@@H](C)c2cn([C@H](CO)Cc3ccccc3)nn2)cc1	-5.8%	?	6%	?	.	29%	?	.
Cn1c(-c2ccco2)n[nH]c1=S	.	5%	0%	63%[46.1 µM]	-28%	.	.	17%
Cc1cn(C)c(=O)n(C)c1=O	.	.	0%	.	-10%	7%	.	2%
O=C(CCC(=O)c1cccs1)NNC(=O)c1cc(Cl)ccc1Cl	.	?	-9%	-2%[46.1 µM]	2%	.	.	9%
O=C(O)c1ccccc1-c1ccccc1C(=O)NCCCO	5.9%	-2%	-6%	13%	-16%	28%	7%	-9%
CC(C)C[C@H](NC(=O)N1CC(=O)Nc2ccccc21)C(=O)N1CCC(C(=O)O)CC1	.	.	1%	.	-25%	-1%	.	7%
CCCC(C(=O)Nc1ccc(C)c(S(=O)(=O)N2CCOCC2)c1)c1ccccc1 (stereo not drawn)	.	?	-7%	?	27%	.	.	4%
CC(C)C1Nc2c(O)cc(Cl)c([N+](=O)[O-])c2C2C=CCC21 (stereo not drawn)	.	.	-7%	.	?	-46%	.	?
COc1cc(C2C(C(=O)c3ccc(C)o3)=C(O)C(=O)N2c2cc(C)on2)cc(Br)c1O (stereo not drawn)	-4.3%	0%	2%	18%&18%	-14%	0%	0%	8%
Cc1scc(C(=O)Nn2cnnc2)c1-c1ccccc1	-2.8%	-20%[14.3 µM]	-3%	24%	-14%	2%	0%	-1%
CCC(C)n1c(O)c(/C=N/Nc2nc3c(c(=O)n(C)c(=O)n3C)n2C)c(=O)[nH]c1=S (stereo not drawn)	.	-8%	0%	8%[46.1 µM]	-3%	-6%	.	-2%
Cc1ccc(C(=O)C(C)OC(=O)C2=COCCO2)cc1C (stereo not drawn)	-2.6%	8%	7%	15%	12%	4%	7%	1%
O=C(CCn1c(=O)[nH]c2ccsc2c1=O)N1CCN(Cc2ccc3c(c2)OCO3)CC1	4.7%	-3%	-2%	?	-28%	0%	-1%	4%
COc1cccc(OCC(=O)N2CCC3(CC2)CC(=O)c2ccccc2O3)c1	.	-19%	.	-16%	?	.	.	2%
O=C(CCCSc1nc2ccccc2s1)NCc1ccco1	-0.3%	22%	-5%	23%	10%	-55%	2%	-10%
CC[C@H](C)NC(=O)c1ccc(Cn2c(=S)[nH]c3c([nH]c4ccc(OC)cc43)c2=O)cc1	-5.1%	-7%	17%	?	-2%	?	8%	15%
Cc1ccc(-c2csc(NC(=O)CSc3nc(C)cs3)n2)cc1	-2.1%	26%	0%	7%	-9%	8%	-7%	-17%
CCOC(=O)c1c(NC(=S)Nc2ccccc2)sc(C)c1C	-2.9%	-9%	-2%	3%	.	11%	?	-13%
COc1ccc(C(C(=O)NC(C)(C)C)N(Cc2ccco2)C(=O)CCC(=O)Nc2cc(C)on2)cc1 (stereo not drawn)	2.8%	12%	1%	8%&8%	-1%	-16%	8%	22%
CCN(Cc1ccccc1)c1nc2c(S(=O)(=O)c3ccccc3)nnn2c2ccc(Cl)cc12	-3.1%	.	.	?	-15%	.	?	.
COc1ccc(CCNC(=O)c2ccc3c(c2)N=C(C)c2cc(C)ccc2S3)cc1OC	-1.2%	.	.	?	?	.	18%	.
CSc1ccccc1C(=O)C1CCCN(Cc2c(C)n(C)n(-c3ccccc3)c2=O)C1 (stereo not drawn)	.	-2%	1%	-21%[46.1 µM]	2%	-1%	.	-12%
CC(C(=O)NCCN1C(=O)S/C(=C\c2cccnc2)C1=O)N1C(=O)c2ccccc2C1=O (stereo not drawn)	-3.7%	-1%	6%	32%	-30%	2%	4%	4%
OC(CC#CCN1CCCCC1)(c1ccccc1)c1ccccc1	.	?	-3%	?	-19%	5%	.	-8%
O=C(Nc1ccc2[nH]c3c(c2c1)CCCC3)c1ccco1	-10%	1%	1%	?	7%	-36%	-17%	?
Cn1cc(C(=O)c2ccccc2)c2ccccc21	-1.6%	.	16%	.	-10%	-45%	0%	?
Cc1ccccc1NC(=O)Cn1nc(C(=O)O)c2ccccc2c1=O	.	11%	1%	-1%[46.1 µM]	4%	-14%	.	-8%
Cc1ccc(-c2nc(=S)c3c(n2Cc2cccnc2)CC(C)(C)OC3)cc1	.	16%	0%	0%[46.1 µM]	10%	-3%	.	1%
C=CCn1c(CNC(=O)c2ccco2)nnc1SCC(=O)c1ccccc1	.	0%	0%	10%[46.1 µM]	18%	3%	.	-13%
Cn1cc(-c2nnnn2-c2ccccc2)c(=O)c2ccccc21	-0.4%	0%	-5%	-16%	-7%	?	-4%	2%
C=CCn1c(SCC(=O)OCC)nc(C(F)(F)F)cc1=O	.	-24%	-1%	20%[46.1 µM]	-1%	-1%	.	1%
O=C(COC(=O)CNC(=O)c1ccccc1)Nc1ccccc1Cl	.	12%[46.1 µM]	0%	4%&4%[46.1 µM]	-15%	.	.	3%
CCc1cc2cc(C)cc(C)c2nc1SCC(=O)Nc1cc(C)on1	.	?	1%	?	-11%	-3%	.	0%
Cc1c(NC(=O)Nc2ccc(C(C)C)cc2)c(=O)n(-c2ccccc2)n1C	.	.	25%	.	-12%	16%	.	3%
Cc1ccc(NC(=O)CSc2ccccc2)cc1S(=O)(=O)N1CCOCC1	.	-8%	5%	-8%	29%	.	.	-13%
Cc1sc2ncnc(SCC(=O)N3CCCC3)c2c1C	-4.7%	1%	0%	0%	1%	-14%	7%	-13%
COC(=O)c1c(NC(=O)CN2C(=O)C(=O)N(C(C)C)C2=O)sc(C)c1C	.	.	2%	-7%	-17%	.	.	1%
COc1ccc(/C=C/C(=O)N2CCN(c3ccccn3)CC2)c2ccccc12	.	?	-8%	-5%	4%	.	.	-7%
Cn1nc(C(=O)NC2CCCCC2)c2ccccc2c1=O	2.9%	-9%	-8%	-3%	17%	-6%	-9%	-3%
CC1(C)CC(=O)c2cc(C(=O)Nc3ccc(Cl)cc3)c(=O)[nH]c2C1	-2.1%	7%[46.1 µM]	.	?	77%[activator]	.	11%	.
O=C(NCc1ccccn1)c1cccc([N+](=O)[O-])c1	1.6%	?	-2%	12%	15%	-9%	2%	4%
Nc1ccccc1/C=C/c1ccccc1N	.	-15%[46.1 µM]	.	?	19%	.	.	2%
